Assay outcomes as filed in PubChem.
miR-21 FLuc: miR-21 reporter, rising signal. 340,000 tested, under 10 active. AID 2288. Potency, µM (highest dose often 38.3 µM), for the others: at the top dose reporter change, positive = more light. HeLa miR-21 FLuc reporter, luciferase, 48 h; active = well fitted rising curve with a large enough effect; inconclusive = small, poorly fitted or top-dose-only effect; inactive = no such curve, though single readings can be large or run the other way;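 also: % of control where 0% means no effect; miR-21 action dims this reporter so a rising signal means less miR-21 action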
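Using DMEM plus 10% FBS, HeLa miR-21-FLuc cells are incubated with test compounds (final up to about 40uM) for 48 hours; firefly luciferase signal is then imaged following reagent-mediated lysis.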
The depositor's hits bear a star; ? = inconclusive.

SMILES	miR-21 FLuc
Cc1ccc(S(=O)(=O)NCCc2nnc3ccc(SCc4cccc(F)c4)nn23)cc1	0%
Cc1ccccc1C(=O)NCCc1csc(-c2ccc(C(F)(F)F)cc2)n1	6%
CCOc1ccc(NC(=O)c2c(NCc3ccc(C)o3)sc3c2CCC(C)C3)cc1 (stereo not drawn)	1%
COc1ccc(CN(Cc2ccco2)C(=O)COc2ccc(Cl)cc2C)cc1	10%
Cc1ccc(Nc2c(-c3ccc(C)o3)nc3cccc(C)n23)cc1	0%
COC(=O)c1ccc(Cl)cc1NC(=O)NC(C)c1c(-n2cccc2)sc(C)c1C (stereo not drawn)	0%
Cc1cn2c(=O)cc(COC(=O)c3ccc(NC(=O)COc4ccccc4F)cc3)nc2s1	-30%
Cc1ccc(C2c3[nH]c4ccccc4c3CCN2C(=O)c2ccc(N(C)C)cc2)cc1 (stereo not drawn)	30%
CCOC(=O)CCCN1C(=O)CCn2nc(-c3cn(C)c4ccccc34)cc21	-8%
COc1ccc(N2Cc3cccc(C(=O)Nc4ccc(C(C)C)cc4)c3C2=O)cc1	-28%
CCOc1ccc2oc(=O)cc(CN3CCN(C(=O)c4ccc(F)cc4)CC3)c2c1	-8%
CCc1ccccc1NC(=O)Cn1cc(C(=O)c2ccc(Cl)cc2)c(=O)c2ccc(C)nc21	4%
COc1ccc(CCC(=O)NC2CC(=O)N(c3ccccc3)C2)cc1 (stereo not drawn)	-1%
CC(C)(C)OC(=O)N1CCC(c2c(C(=O)NCc3cccs3)cnn2-c2cccc(F)c2)CC1	?
COc1cccc(-n2nnc3c(sc4nc(C)cc(C)c43)c2=O)c1	0%
CC(=O)c1cccc(NC(=O)c2nc(-c3ccccc3)n(-c3cccc(C)c3)n2)c1	?
CCc1nc2nc(C)cc(Nc3cc(Cl)ccc3C)n2n1	-16%
COc1ccc(NC(=O)c2ccc3c(=O)n4nc(Nc5ccccc5C)sc4nc3c2)cc1	-3%
COc1ccc(CNC(=O)c2cccc(NC(=O)N3CCSc4ncccc43)c2)cc1	6%
Cc1nn(-c2ccccc2)c(-n2cccc2)c1C(=O)NCCCN1CCN(c2ccccc2F)CC1	20%
COc1cc2nc(NC(=O)c3ccc(S(=O)(=O)N4CCOCC4)cc3)sc2cc1OC	6%
O=C(CCc1cn(Cc2ccccc2Cl)c2ccccc12)NC1CCCCC1	20%
CCCS(=O)(=O)N1CCC(n2c(C(F)(F)F)nc3cccnc32)CC1	14%
CCC(CC)C(=O)Nc1nc2c(s1)CC(C)CC2 (stereo not drawn)	-4%
CC(=O)c1ccc(NS(=O)(=O)c2ccc3[nH]c4c(c3c2)CCCC4)cc1	0%
CCc1ccc(CNC(=O)c2cnc3sc(N(CC)CC)nn3c2=O)cc1	2%
Cc1ccc(C(=O)Nc2ccccc2C(=O)O)cc1S(=O)(=O)N1CCCCCC1	-9%
COc1cc(C(=O)NCC(c2ccco2)S(=O)(=O)c2ccccc2)cc(OC)c1OC (stereo not drawn)	-1%
CCCCn1nc(NC(=O)c2cccc(Cl)c2)c2cc3cccc(C)c3nc21	0%
Cc1cc(C)c(NC(=O)Cn2c(=O)n(Cc3ccccc3)c(=O)c3c(C)c(C(=O)N(C)C)sc32)c(C)c1	18%
CCOc1ccc(OC(=O)c2sc3ncn(Cc4cccc(F)c4)c(=O)c3c2C)cc1	0%
COc1ccc(-c2noc(-c3ccc(N4CCCC4)c([N+](=O)[O-])c3)n2)cc1OC	2%
Cc1cc(C)cc(OCC(=O)Nc2ccc(S(=O)(=O)Nc3onc(C)c3C)cc2)c1	-2%
COc1ccc(CCNC(=O)Cn2cc(S(=O)(=O)Cc3cccc(Cl)c3)c3ccccc32)cc1OC	?
CCOc1ccccc1CNC(=O)c1ccc(-c2nc(CSc3ccc(C)cc3)c(C)o2)cc1	-1%
COc1ccc2cc(-c3nc(Cl)c4c5c(sc4n3)CCCC5)c(=O)oc2c1	1%
COc1ccc(S(=O)(=O)c2c(Nc3c(C)cccc3C)sc(C(=O)c3ccc(F)cc3)c2N)cc1	2%
CCN(C(=O)c1cc2c(s1)-c1ccccc1OC2)c1cccc(C(F)(F)F)c1	-7%
CCCN1CCN(c2ncnc3sc(C(=O)Nc4ccc(OC(F)(F)F)cc4)c(C)c23)CC1	6%
Cc1cc(C)cc(NC(=O)C2CCN(S(=O)(=O)c3cccc4nonc34)CC2)c1	-1%
O=C(Cn1c(=O)n(Cc2ccc(C(=O)NCc3ccc4c(c3)OCO4)cc2)c(=O)c2ccccc21)Nc1cccc(Cl)c1	-1%
COc1ccc(N(Cc2cccs2)C(=O)c2ccc(C(C)(C)C)cc2)cc1	9%
Cc1cc(C)cc(Nc2cc(C(=O)NCCCN(Cc3ccccc3)C(C)C)c3ccccc3n2)c1	23%
COc1ccc(OC)c(NC(=O)c2c(C)oc3ncnc(N4CCOCC4)c23)c1	26%
COc1cccc(C(=O)Nc2cc(-c3cn4cccnc4n3)ccc2C)c1OC	6%
Cc1ccc(Cl)cc1NC(=O)C(C)n1nnc2sc(-c3ccccc3)cc2c1=O (stereo not drawn)	9%
Cc1ccc2c(=O)cc(C(=O)Nc3sc4c(c3C(=O)NCC3CCCO3)CCC4)oc2c1 (stereo not drawn)	0%
Cc1cc(Nc2cccc(Cl)c2)nc2ccc(NC(=O)COc3ccc(Cl)cc3)cc12	9%
COCCCNC(=O)c1ccc(Cn2c(=O)c3ccccc3n(CC(N)=O)c2=O)cc1	6%
COc1ccc(S(=O)(=O)n2nc(C)c(S(=O)(=O)N3CCCCCC3)c2C)cc1OC	3%
COc1ccc(OC)c(CCNC(=O)Cn2ccc3cc(S(=O)(=O)N4CCCCC4)ccc32)c1	?
COc1ccc(NC(=O)Cn2c(=O)n(Cc3ccccc3)c(=O)c3sc4ccccc4c32)cc1	-1%
CC(Sc1nc(=O)cc(N)n1CCc1ccccc1)C(=O)Nc1ccccc1C#N (stereo not drawn)	3%
O=C(Nc1ccc(-n2nncc2-c2ccccc2)cc1)c1cccc(F)c1	2%
Cc1c(C(=O)N(C)c2ccccc2)sc2nc(-c3ccc(F)cc3)cn12	-31%
COc1ccc(CCNc2ncnc3c2nnn3C)cc1	20%
CCCC(=O)Nc1ccc2nc(SCCOc3ccccc3)sc2c1	3%
COc1ccc(-n2c(=O)c3c(c4cc(OC)ccc4n3C)n(Cc3c(F)cccc3Cl)c2=O)cc1	0%
COC(=O)c1ccc(Cn2c(SCC(=O)NCc3ccccc3)nc3ccccc32)cc1	-7%
CCOc1ccccc1OCCCCn1c(-c2ccc(Cl)cc2)nc2ccccc2c1=O	2%

Continuation.
SMILES	miR-21 FLuc
CCOc1ccc(CC(=O)Nc2c(C(=O)c3ccc(F)cc3)oc3ccccc23)cc1OCC	-4%
CCc1cccc(C)c1Nc1c(-c2cccc(O)c2)nc2nc(C)cc(C)n12	15%
O=C1CCSC2(C(=O)N(Cc3ccc(F)cc3)c3ccccc32)N1c1cccc(F)c1 (stereo not drawn)	29%
CCc1ccc(Nc2nn(-c3ccc(OC(F)(F)F)cc3)nc2C(C)=O)cc1	9%
COc1ccc(C)cc1NC(=O)Cn1c(=O)oc2cc(S(=O)(=O)NCc3ccccc3)ccc21	5%
Cc1ccc(C(=O)c2oc3ccccc3c2NC(=O)COc2ccc(C(C)(C)C)cc2)cc1	-14%
Cc1ccc(C)c(NC(=O)C2CCCN(S(=O)(=O)c3cccc4nsnc34)C2)c1 (stereo not drawn)	0%
COc1ccccc1C(=O)Nc1cccc(C(=O)OCc2cc(=O)n3ccsc3n2)c1	-6%
CCN(CC)C(=O)CSc1nc2cc3c(cc2c(=O)n1CCCC(=O)NCc1ccc2c(c1)OCO2)OCO3	23%
Cc1cccc(OC(=O)c2snnc2C)c1C	3%
O=C(C1CCC(Cn2c(=O)c3sccc3n(Cc3ccccc3)c2=O)CC1)N1CCOCC1 (stereo not drawn)	-4%
Cc1cccc(CCNC(=O)c2c[nH]c3ccc(S(=O)(=O)Nc4ccccc4F)cc3c2=O)c1	18%
Clc1cccc(-c2nnc(CN3CCN(c4ccccn4)CC3)o2)c1	0%
Cn1c(=O)n(C)c2cc(N3CCOCC3)c(NS(=O)(=O)c3cccc(C#N)c3)cc21	-9%
COc1ccc(S(=O)(=O)c2cn(C)c3cc(N4CCOCC4)c(F)cc3c2=O)cc1	3%
CCOc1ccc(-c2cc(NC(=O)Nc3ccccc3Cl)c(C(=O)OC)s2)cc1	-63%
Cc1cccc(NC(=O)CC2C(=O)OCCN2Cc2ccccc2)c1 (stereo not drawn)	1%
CCOC(=O)c1c(C)[nH]c(C)c1S(=O)(=O)NCC(=O)NCc1cccc(C)c1	-4%
CCCCOc1ccc(C(=O)Nc2ccc(-c3nc4ccccc4s3)cc2C)cc1	-24%
Cc1ccc(NC(=O)C2CCN(S(=O)(=O)c3ccc4[nH]c(=O)ccc4c3)CC2)cc1C	-1%
CCOC(=O)Cn1c(=O)n(C2CCCCC2)c2nc(-c3cccc(F)c3)nc(C(N)=O)c21	0%
Cn1c(=O)cc(SCC(=O)Nc2cccc(C#N)c2)c2ccc(Cl)cc21	-2%
CC1CN(C(=O)Nc2ccc(C(=O)NCCc3ccccc3Cl)cc2)c2ccccc2S1 (stereo not drawn)	-29%
Cc1cc(C)c(NS(=O)(=O)c2ccc3c(c2)CC(C)N3C(=O)C2CCC2)c(C)c1 (stereo not drawn)	21%
Cc1ccc(C)c(Nc2nnc(-c3ccc(C)c(S(=O)(=O)N4CCN(C)CC4)c3)c3ccccc23)c1	-3%
O=C(NCCc1ccccc1)c1cc(S(=O)(=O)N2CCCCC2)c[nH]1	0%
CCn1cc2nc(SCc3cccc(F)c3)n(CCc3ccccc3)c(=O)c2n1	24%
COc1ccc(C(C(=O)Nc2ccc(C(C)C)cc2)N(C)C(=O)Cc2cccs2)cc1 (stereo not drawn)	?
COc1ccc(CNC(=O)c2cc(-c3ccc(C)cc3)nc3n[nH]c(-c4ccc(Br)cc4)c23)cc1	-2%
CCOC(=O)c1ccc(NC(=O)C2(S(=O)(=O)c3ccc(Cl)cc3)CC2)cc1	-5%

Of the compounds above, these have a tert-butyl group.
SMILES	miR-21 FLuc
CC(C)(C)OC(=O)N1CCC(c2c(C(=O)NCc3cccs3)cnn2-c2cccc(F)c2)CC1	?
COc1ccc(N(Cc2cccs2)C(=O)c2ccc(C(C)(C)C)cc2)cc1	9%
Cc1ccc(C(=O)c2oc3ccccc3c2NC(=O)COc2ccc(C(C)(C)C)cc2)cc1	-14%

(cont.)
SMILES	miR-21 FLuc
COc1ccccc1CNC(=O)CN1C(=O)CSc2ccc(S(=O)(=O)N3CCCCC3)cc21	0%
CCOc1ccccc1NC(=O)CCc1c(C)nc2cc(-c3ccccc3)nn2c1C	10%
Cc1ccc2nc(/C(C#N)=C/c3ccc(-c4ccc(C(=O)OC(C)C)cc4)o3)[nH]c2c1	-73%
O=c1c(=O)n(Cc2c(F)cccc2Cl)ccn1Cc1ccccc1	?
CCCc1ccc(OCC(=O)Nc2sc(C(=O)OCC)c(C)c2C(=O)OCC)cc1	-3%
CC(=O)Nc1nnc2n1CCS2	2%
O=C(Nc1ccc(-c2nc3cc(NC(=O)c4ccc(F)cc4)ccc3o2)cc1)c1ccc(F)cc1	-4%
O=C(NCc1ccccc1)C1CCN(C(=O)c2cnn(-c3ccccc3)c2-n2cccc2)CC1	13%
Cc1ccc2nc(-c3cccc(Cl)c3)c(Nc3ccc4c(c3)OCO4)n2c1	-15%
CCCN(CCC)C(=O)Cn1c(=O)n(-c2ccc(OC)cc2)c(=O)c2ccc(C(=O)NCc3ccc(C)cc3)cc21	14%
CCN1c2ccccc2-n2cccc2C12CCN(C(=O)Nc1ccccc1Br)CC2	-1%
Oc1c(C(c2ccccc2)N2CCN(c3cccc(Cl)c3)CC2)sc2nc(-c3ccco3)nn12 (stereo not drawn)	29%
O=C(CSc1nnc(COc2ccc(Cl)cc2)o1)Nc1ccccc1	14%
CC(=O)N1CCCc2cc(S(=O)(=O)NCc3ccc(N(C)C)cc3)ccc21	0%
CCc1ccc(CNC(=O)C2CCN(C(=O)N3CC(CC)Oc4ccc(C)cc43)CC2)cc1 (stereo not drawn)	-1%

Among those listed so far, eight have an NH in an aromatic ring:
SMILES	miR-21 FLuc
Cc1ccc(C2c3[nH]c4ccccc4c3CCN2C(=O)c2ccc(N(C)C)cc2)cc1 (stereo not drawn)	30%
CC(=O)c1ccc(NS(=O)(=O)c2ccc3[nH]c4c(c3c2)CCCC4)cc1	0%
Cc1cccc(CCNC(=O)c2c[nH]c3ccc(S(=O)(=O)Nc4ccccc4F)cc3c2=O)c1	18%
CCOC(=O)c1c(C)[nH]c(C)c1S(=O)(=O)NCC(=O)NCc1cccc(C)c1	-4%
Cc1ccc(NC(=O)C2CCN(S(=O)(=O)c3ccc4[nH]c(=O)ccc4c3)CC2)cc1C	-1%
O=C(NCCc1ccccc1)c1cc(S(=O)(=O)N2CCCCC2)c[nH]1	0%
COc1ccc(CNC(=O)c2cc(-c3ccc(C)cc3)nc3n[nH]c(-c4ccc(Br)cc4)c23)cc1	-2%
Cc1ccc2nc(/C(C#N)=C/c3ccc(-c4ccc(C(=O)OC(C)C)cc4)o3)[nH]c2c1	-73%

Carrying on:
SMILES	miR-21 FLuc
COC(=O)CN1C(=O)CSc2ccc(S(=O)(=O)Nc3cccc(C)c3C)cc21	5%
Cc1ccc2nc(-c3ccc(Cl)c(NC(=O)c4ccc5c(c4)OCCO5)c3)oc2c1	-65%
CC1CCN(S(=O)(=O)c2ccc3c(c2)N(CC(=O)NCCc2ccc(Cl)cc2)C(=O)CO3)CC1	13%
Cc1cccc(Cc2c(C)nc3nc(SCc4cccc(F)c4)nn3c2C)c1	26%
Clc1ccc(OCc2nc3ccccc3n2Cc2ccccc2)c(Cl)c1	-44%
COc1ccc(C(=O)Nc2ccc3nc(SCC(=O)N(C)c4ccccc4)sc3c2)cc1	-7%
CCc1nn(Cc2cc(C)ccc2C)c(=O)c2cc3cc(C)ccc3n12	-2%

Arranged by number of heavy atoms (lowest first): part of the list above
SMILES	miR-21 FLuc
CCc1nn(Cc2cc(C)ccc2C)c(=O)c2cc3cc(C)ccc3n12	-2%
Cc1cccc(Cc2c(C)nc3nc(SCc4cccc(F)c4)nn3c2C)c1	26%
CC1CCN(S(=O)(=O)c2ccc3c(c2)N(CC(=O)NCCc2ccc(Cl)cc2)C(=O)CO3)CC1	13%

Only part of the results is shown; the hit share may differ from the screen's.
